# Calb biofilm kill = clotrimazole potentiators killing C. albicans biofilm, primary screen, 4-compound mixtures | C. albicans biofilm persisters + clotrimazole, fluorescence viability; primary screen in compound mixtures of four per well | inhibition, % at 7.6 µM | 0.02% of 120,000 active | AID 1242, 2008;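 active = inhibition above 30.3% in the primary screen of four-compound pools, then above 30% when the compound was retested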;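 also: compounds exposed to preformed 24 h biofilms for 48 h; the number belongs to the whole pool; some results filed as inactive read as strong as hits; inactives centre near 12; 0% = biofilm with clotrimazole alone and 100% = kill control; retested singly at about 60 µM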
#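 Test system: C. albicans biofilms. Buffer or medium: RPMI/MOPS medium, pH 7.0. Timing: 48 h compound exposure at 37 °C. Technique: Alamar Blue fluorescence. Evaluation: percent inhibition of biofilm viability.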
# * hit, by the source's call.
SMILES | Calb biofilm kill
Cc1cc(=O)[nH]c(SCC(=O)NNC(=O)Cc2ccccc2)n1 | -5
O=C(NCCc1ccccc1)C1CCC(CNS(=O)(=O)c2cccs2)CC1 (stereo unspecified) | -2
Cc1ccc2nc(SCC(=O)Nc3ccc4c(c3)CCC4)[nH]c2c1 | 6
CC(C)[C@H](NC(=O)c1ccco1)C(=O)OCC(=O)Nc1ccc(F)cc1 | 15
Cn1ncc2c(N3CCN(c4ccc(Cl)c(Cl)c4)CC3)ncnc21 | 0
CCOC(=O)c1cnc(-c2ccccc2)nc1N1CC(C)OC(C)C1 (stereo unspecified) | 3
COc1ccc(C/C(C)=N/Nc2nc(C)cc(=O)[nH]2)cc1 | 6
CCOC(=O)C1(C)C=C(Nc2ccc(OCC)cc2)C(=O)N1c1ccccc1 (stereo unspecified) | 14
Oc1ccc(Cl)cc1C1=NNC(c2ccc(Cl)cc2)C1 (stereo unspecified) | 4
CCOn1c(=O)c[n+]([O-])c2ccccc21 | 13
CCOC(=O)c1cnc(N2CCN(C(=O)OCC)CC2)[nH]c1=O | 15
CCOC(=O)C(C(=O)NCCCN1CCOCC1)C1CCCCC1 (stereo unspecified) | 7
O=C(NCCOc1ccc(Cl)cc1)C1CCCCC1 | 3
CN(/C(=N/S(=O)(=O)c1cccs1)c1ccccc1)c1ccccc1 | 11
COC(=O)CCCNC(=O)c1ccc(OC2CCN(CCc3ccccc3)CC2)cc1 | 17

# Shown field by field: 3 of the compounds above
> Oc1ccc(Cl)cc1C1=NNC(c2ccc(Cl)cc2)C1 (stereo unspecified)
  Calb biofilm kill = 4

> CCOC(=O)c1cnc(N2CCN(C(=O)OCC)CC2)[nH]c1=O
  Calb biofilm kill = 15

> CN(/C(=N/S(=O)(=O)c1cccs1)c1ccccc1)c1ccccc1
  Calb biofilm kill = 11

# Carrying on:
SMILES | Calb biofilm kill
COc1cc(/C=N/NC(=O)CSc2ccccn2)ccc1OC(C)C | 12
CN(C1CCCCC1)S(=O)(=O)c1cccc(C(=O)OCC(=O)NC2CCCc3ccccc32)c1 (stereo unspecified) | 7
O=C(Nc1ccc(Cl)cn1)C1C(c2ccccc2)C1(Cl)Cl (stereo unspecified) | 3
Cc1cccc[n+]1CC(=O)N1c2ccccc2Sc2ccccc21 | 28
CCN(CC)S(=O)(=O)c1ccc(N2CCCC2)c(NC(=O)CC(C)(C)C)c1 | 7
O=C(Nc1ccc(NC(=O)c2ccccc2Cl)nc1)c1ccncc1 | 4
CCOc1ccc2nc(Cl)c(CN(C(=O)c3cnccn3)C3CCCC3)cc2c1 | 3
N#Cc1ccc(OCc2nnc3n2CCCCC3)cc1 | 8
CC(C)(O)C#Cc1ccc(C(=O)N2CCN(c3ccc([N+](=O)[O-])cc3)CC2)cc1 | 8
CCOc1ccccc1C(=O)Nc1ccsc1C(=O)OC | 10
CC(Sc1nnnn1C)C(=O)Nc1ccc2c(c1)OCCO2 (stereo unspecified) | 4
CCC(C)NCCOCCOc1ccc(Br)cc1C (stereo unspecified) | 10
COc1ccc(/C=N/N2CCN(C3c4ccccc4-c4ccccc43)CC2)cc1O | 16
COC(=O)c1sccc1NC(=O)Nc1cccc(F)c1 | 12
COc1cc2c(cc1OC)C(C(=O)Nc1cc(OC)c(OC)c(OC)c1)C(c1cccnc1)N(C)C2=O (stereo unspecified) | 1
CCCCCOc1ccc(CSCCNC(=S)Nc2ccccc2)cc1 | 11
O=C(/C=C/c1ccco1)NC(=S)Nc1ccc(N2CCCC2)cc1 | 9
COc1ccc(C(=O)OCC(=O)N2CCCC2=O)c(OC)c1 | 10
O=C(COC(=O)CCC(=O)c1cccs1)NCc1cccs1 | 23
CNc1nc2cccnc2s1 | 25
CC1CC2(C)CC(C)C1(COC(=O)Nc1ccccc1)CO2 (stereo unspecified) | 1
C=CCn1c(SCC(=O)N2CCc3ccccc3C2)nc2sc(CC)cc2c1=O | -2
O=c1c2sccc2[nH]c(=S)n1-c1ccccc1 | 8
COc1cc(NC(C)=O)c2ncccc2c1[N+](=O)[O-] | 15
COC(=O)CSc1ccc(S(=O)(=O)N2CCOCC2)cc1[N+](=O)[O-] | 15
CC1CCCCC1NC(=O)CN1C(=O)CSc2cc(S(=O)(=O)N3CCCCCC3)ccc21 (stereo unspecified) | 12
COCCNC(=O)C1CC2Cn3c(nc4ccccc43)C2N1C (stereo unspecified) | 13
CCn1c2c(c3cc(OCC(C)C)ccc31)CCCC2=O | 4
O=C(COC(=O)c1ccccc1NC(=O)c1ccccc1)c1cccc([N+](=O)[O-])c1 | 15
O=C(NNC(=O)C1CC1)c1cc2cc3ccccc3nc2s1 | 3
C/C(CC(=O)Nc1ccc(Cl)cc1Cl)=N\NC(=O)C(=O)N1CCCC1 | 19
COc1cc(/C=N/Nc2nc(C)cc(C)n2)ccc1OC(=O)c1ccco1 | 7
O=C(COc1ccc(Br)cc1F)N1CCN(c2ncccn2)CC1 | 7
O=C(O)c1cc(N/N=C/C=C/c2ccccc2)ccc1Cl | 17
CC1CCN(S(=O)(=O)c2ccc3c(c2)c(=O)c(C(=O)NCc2ccco2)cn3C)CC1 | 13
COc1ccccc1NC(=S)Nc1cccc2cnccc12 | 17
O=C(Nc1ccc(C(=O)O)cc1)/C(=C\c1ccc2c(c1)OCO2)NC(=O)c1ccccc1 | 14
O=C(Nc1cccc2ccccc12)/C(=C\c1cccc([N+](=O)[O-])c1)NC(=O)c1cccs1 | 9
Cc1c(/C=C/C(=O)c2ccc(Cl)s2)cnn1C | 14
CCOc1ccc(C(=O)Nc2cc(-c3nc4ccccc4[nH]3)ccc2Cl)cc1[N+](=O)[O-] | 21
CCC1C(=O)CC(c2ccccc2)NC1c1ccccc1 (stereo unspecified) | 8
CC1(/[N+]([O-])=C/c2ccccc2F)CCCCC1=O (stereo unspecified) | 16
N/C(CC(=O)Nc1ccc(F)c(Cl)c1)=N\OC(=O)c1cccs1 | -1
COc1ccc(NC(=O)COC(=O)/C=C/c2cnc3ccccc3n2)cc1 | 10
CC1CCN(C(=O)C2CCC(CNc3c(N4CCCCC4)c(=O)c3=O)CC2)CC1 (stereo unspecified) | 5
COC(=O)C/C(C)=N/Nc1ccc(S(=O)(=O)N2CCCC2)cc1[N+](=O)[O-] | -1
Cc1ccc(S(=O)(=O)N(CC(O)CN2C(=O)NC(C)(C)C2=O)c2cccc(C)c2)cc1 (stereo unspecified) | 24
O=C(Nc1ccc2c(c1)OCO2)c1cnccn1 | 8
COc1ccc(O)c(C(=O)c2cc(C#N)c(=O)n(-c3ccc(Cl)cc3)c2)c1 | 14
OC(CNCc1ccc(Cl)cc1)C(F)(F)F (stereo unspecified) | 13
CCS(=O)(=O)Nc1cccc(C(=O)O)c1 | 14
CCS(=O)(=O)c1ccc(O)c(NC(=O)Nc2ccccc2OC)c1 | 20
CCN(CC)C(=O)CSc1nc(-c2ccco2)cc(C(F)(F)F)c1C#N | 4
CCn1c(SCc2nc3cc(OC)c(OC)cc3c(=O)[nH]2)nc2ccccc21 | 13
Cc1ccc(S(=O)(=O)CCC(=O)NCCN2C(=O)S/C(=C\c3ccccc3)C2=O)cc1 | 12
CC(C)(C)C1CCc2c(C(=O)NNC(=O)/C=C/C(=O)O)csc2C1 (stereo unspecified) | 12
COc1ccc(N2CCN(Cc3nc(Cc4cccc(F)c4)no3)C(C)C2)cc1 (stereo unspecified) | 22
COC(=O)c1sccc1NC(=O)/C=C/c1ccc(Cl)cc1Cl | 6
Cc1cccc2cc(CNC3CCCC3)c(Cl)nc12 | 18
CCC(=O)Nc1ccc(-n2nnnc2SCC(=O)NNC(=O)c2ccco2)cc1 | 21

# Some of the entries so far, field by field.
COC(=O)c1sccc1NC(=O)/C=C/c1ccc(Cl)cc1Cl
  Calb biofilm kill: 6
COC(=O)C/C(C)=N/Nc1ccc(S(=O)(=O)N2CCCC2)cc1[N+](=O)[O-]
  Calb biofilm kill: -1
CCS(=O)(=O)Nc1cccc(C(=O)O)c1
  Calb biofilm kill: 14
Cc1cccc2cc(CNC3CCCC3)c(Cl)nc12
  Calb biofilm kill: 18

# New compounds follow
SMILES | Calb biofilm kill
COc1cc(/C=N/NC(=O)c2cccc(S(=O)(=O)N3CCOCC3)c2)cc(OC)c1O | -1
Cc1c(Cl)cccc1NC(=O)c1ncn[nH]1 | 9
Cn1cnnc1SCC(=O)Nc1cccc(S(=O)(=O)N2CCCCCC2)c1 | 5
C/C=C/C=C/C(=O)[C@@H]1[C@@H]([C@]2(C)OC(=O)C(C)=C2O)[C@H]2/C(=C(O)/C=C/C=C/C)C(=O)[C@]1(C)C(=O)C2(C)O (stereo partly specified) | 25
Nc1ccccc1Sc1cc(Cl)nnc1Cl | 14
O=c1c2ccccc2nc2n1CCCN2 | 22
COc1ccc(C(C(=O)NC2CCCCC2)N(C(=O)c2ccccn2)c2cccnc2)cc1 (stereo unspecified) | 9
Cc1ccnc(NC(=O)COC(=O)c2ccc(F)cc2F)n1 | 18
CC(C)C(C(=O)NC1=NCCS1)c1ccc(Cl)cc1 (stereo unspecified) | 10
CC(C)CC(=O)Nc1ccc([N+](=O)[O-])cc1Cl | 10
COc1nccnc1NS(=O)(=O)c1ccc(NC(=S)NC(=O)c2cccc(F)c2)cc1 | 11
CCn1c(=O)cc(SCC(=O)NCCC2=CCCCC2)c2ccccc21 | 16
COc1ccc(C2c3ccc(O)cc3Oc3ncn4nc(-c5ccncc5)nc4c32)cc1OC (stereo unspecified) | 12
CCc1ccc(NC(=O)C(C)OC(=O)c2ccc(N3CCCC3)c([N+](=O)[O-])c2)cc1 (stereo unspecified) | 11
O=C(Cn1nnc2ccccc2c1=O)Nc1ccc(S(=O)(=O)N2CCOCC2)cc1 | 11
CN1CCCN(C(=O)c2cc(-c3ccc(Cl)c(Cl)c3Cl)nc3ccccc23)CC1 | 11
COC(=O)c1ccc(NC(=O)c2cc(Cl)ccc2OC)cc1 | 6
COc1ccc(N(CC(=O)NC2CCCC2)C(=O)c2csnn2)cc1 | 14
Cc1ccc(NC(=S)NCc2ccc3[nH]c4c(c3c2)CCCC4)cc1 | 7
O=C1/C(=C/c2cccnc2)SC(=S)N1CC1CCCO1 (stereo unspecified) | 9
CCOc1ccc(NC(=O)NCc2cccnc2)cc1 | 7
CC(C)c1onc(C(=O)N2CCC(C(N)=O)CC2)c1[N+](=O)[O-] | 19
COc1ccc(NC(=O)Nc2c(C)noc2-c2ccccc2)cc1 | 19
CC1CCCN(c2ncnc3c2cnn3-c2ccccc2)C1 (stereo unspecified) | 4
Cc1cc(NS(=O)(=O)c2ccc(Nc3nc(-c4ccc(O)cc4)cs3)cc2)no1 | 2
CC1CCCCN1c1nc2nonc2nc1N1CCCCC1C (stereo unspecified) | 7
CC1CCCCN1S(=O)(=O)c1ccccc1[N+](=O)[O-] (stereo unspecified) | 12
CCOC(=O)/C(C#N)=C/Nc1cc(F)ccc1C | 20
COc1ccc(NC(=O)Nc2ccc(OC)c(OC)c2)c([N+](=O)[O-])c1 | 4
O=C(O)CCn1cc(/C=C2\SC(=S)NC2=O)c(-c2ccccc2)n1 | 9
COc1ccc(CCN=C(N)NS(=O)(=O)c2ccc(C)cc2)cc1 | -2
C=CCOc1ccc(C(=O)CC)cc1OC | 3
CC(C)(C)n1nc(C2CC2)cc1NC(=O)Nc1ccc(Cl)cc1 | 21
Clc1nc(Nc2ccccc2)nc(Nc2ccccc2)n1 | 18
O=C(Cn1cnc2ccccc21)N/N=C/c1cccs1 | 12
CCOC(=O)C1=C(CN2CCN(CCC#N)CC2)NC(=O)NC1c1ccc2c(c1)OCO2 (stereo unspecified) | 13
O=C(NNC(=S)NC1CCCCC1)c1ccc2c(c1)OCO2 | 18
COCCNC(=O)[C@H](CSCc1ccccc1)N1Cc2ccccc2C1=O | 22
CCN1CCN(C2=CC3=CC(=C(C#N)C#N)CCC3CC2)CC1 (stereo unspecified) | 13
Cc1nc(NC(=S)NC(=O)COc2ccccc2Cl)ccc1Br | 7
O=C(CN1CC[n+]2c(-c3cccs3)csc21)c1ccc(Br)cc1 | 16
O=C(N/N=C/c1cccs1)c1cc(-c2ccncc2)nc2ccccc12 | 14
O=C(O)c1cccnc1SC1CC(=O)N(c2ccccc2)C1=O (stereo unspecified) | 21
Cc1c(C=N)c(O)n(C)c(=O)c1C#N | 10
COc1ccc(CNC(=O)c2ccc(Br)cc2)cc1 | 3
COC(=O)C1=C(C)N(C)C(=O)NC1c1cc2c(cc1[N+](=O)[O-])OCO2 (stereo unspecified) | 10
CC1CCc2sc(C(=O)OCC(=O)NCc3ccccc3)cc2C1 (stereo unspecified) | 14
Cc1ccc(C(=O)NN(CCC#N)C2=NS(=O)(=O)c3ccccc32)cc1 | 16
NC(=S)NNC(=O)C12CC3CC(CC(C3)C1)C2 | -9
CCNc1ccc(S(=O)(=O)N(C)C)cc1NCC(=O)Nc1ccc(F)c(Cl)c1 | 20
Cc1nsc2c1ccc1ccccc12 | 20
O=c1c2ccccc2c2ccccc2c(=O)n1-c1ccccc1 | 11
CCCC(=O)OCC(=O)Nc1ccc2[nH]c(=O)[nH]c2c1 | 18
N#CCC(=O)N/N=C/c1cn(Cc2ccc(Cl)cc2Cl)c2ccccc12 | 9
NC(=O)Cn1nc2sc3ccccc3n2c(=O)c1=O | 26
O=C(O)C1=C(OCc2ccccc2)C(=O)NCC1 | 4
O=C(CSc1ncnc2[nH]ncc12)Nc1cccc(Oc2ccccc2)c1 | 7

# A portion of the library; count on the stated rates, not on these rows.
